From PubChem BioAssay
BJeLR viability = MLPCN primary cell-based screen for lethality selective to Ras in HRASV12 cells; BJeLR (HRASV12) viability, CellTiter-Glo ATP luminescence, 48 h; reference of the scale not given here; inhibition, % (no concentration beside the values); 0.17% of 300,000 active; AID 1554, 2009;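 active means replicate mean above 50%; inconclusive means above 50% but judged a plate artefact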;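 further: 50 nL library stock added to about 25 µL; numbers are from one replicate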
ugtP null kill = growth inhibition of ugtP-null S. aureus, primary screen, RN4220 ugtP deletion, OD600; 16 h; some inactives read as strong as hits; growth inhibition, % (concentration not given with the values); 0.54% of 330,000 active;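 active means z-score under -3 and OD600 up to 0.15 on both plates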;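 further: plate controls were untreated wells for no effect and antibiotic for full effect; wells of about 80 µL received 100 nL stock; the first replicate is given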
RN4220 kill = growth inhibition of S. aureus RN4220, primary screen, OD600. 16 h. inhibition, % (no concentration beside the values). 0.33% of 330,000 active. AID 1259311, 2017;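 active means z-score of -3 or lower and OD600 up to 0.18 on both plates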;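 further: plate controls were untreated cells for no effect and reference antibiotic for full effect; stock transfer was 100 nL into about 80 µL; one replicate is shown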
PrP UTR inh = inhibition of PrP 5' UTR reporter expression. cell-based PrP 5' UTR mRNA reporter, plate reader. inhibition, % (test concentration not listed). 0.35% of 340,000 active;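 active means every replicate at 50% or more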;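 further: 0 = median of the neutral control wells; tested in H4 reporter cells; numbers are from one replicate; inactives centre near -14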
Mtb hypoxia inh = PubChem AID 1159583; M. tuberculosis hypoxia-regulated fluorescent reporter, fluorescence; fluorescence inhibition, % (test concentration not listed); 0.1% of 300,000 active;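 active means 35 to 45% if threefold the growth effect, above 45% if 1.5-fold the growth effect; inactive means the rest, general growth blockers included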;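 further: wells of about 50 µL received 100 nL stock; 0% = vehicle wells and 100% = reference inhibitor wells; whole bacteria with a GFP reporter of the hypoxia response; strong numbers were not always called active; many hits fall short of the cut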
Bead autofluor = flagged as autofluorescent in microsphere protease counterscreen; compound autofluorescence counterscreen, microsphere flow cytometry; active compounds read high; fluorescence intensity (test concentration not listed); 3.1% of 360,000 active;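 active means at least 3 SD above the mean of all compounds, about 16000 in these data; inconclusive means too few beads counted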;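 further: 100 nL of 1 mM stock went into each well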
Mtb hypoxia inh growth = further read-out of Mtb hypoxia inh, marked with its call; growth inhibition, %; measured here: M. tuberculosis growth (absorbance);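 0% = vehicle and 100% = reference antibiotic; read after six days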
An asterisk follows results filed as active; ? = inconclusive; / = not tested or not shown.

A first look:
SMILES	BJeLR viability	ugtP null kill	RN4220 kill	PrP UTR inh	Mtb hypoxia inh	Mtb hypoxia inh growth	Bead autofluor
Cc1nc2c(-c3ccccc3)c(C)nn2c(N)c1-c1ccccc1	-1	-18	-12	-110	6	8	?
COCCN1CC(C(=O)N2CCC(Oc3ccccc3OC)CC2)CCC1=O (configuration not stated)	3	9	-0.6	-11	4	7	5186
O=C(CCCC(=O)Nc1cccc(Br)c1)N/N=C/c1cc([N+](=O)[O-])ccc1O	8	/	/	-1	/	/	6841
CC(=O)Nc1ccc(C(=O)OCC(=O)c2ccc(F)cc2)cc1	12	10	5.5	-28	9	3	2128
COc1ccc(C)cc1S(=O)(=O)N1CCN(C(=O)c2ncoc2-c2ccccc2F)CC1	-16	18	3.0	-16	1	8	3698
COc1ccccc1CNC(=O)COC(=O)CCN=C1NS(=O)(=O)c2ccccc21	9	2	0.9	-7	12	8	5501
Cn1c(=O)c2[nH]c(NN=Cc3ccc(F)cc3)nc2n(C)c1=O	/	-2	0.6	-41	14	6	3300

Results, previewed entries included:
SMILES	BJeLR viability	ugtP null kill	RN4220 kill	PrP UTR inh	Mtb hypoxia inh	Mtb hypoxia inh growth	Bead autofluor
Cc1nc2c(-c3ccccc3)c(C)nn2c(N)c1-c1ccccc1	-1	-18	-12	-110	6	8	?
COCCN1CC(C(=O)N2CCC(Oc3ccccc3OC)CC2)CCC1=O (configuration not stated)	3	9	-0.6	-11	4	7	5186
O=C(CCCC(=O)Nc1cccc(Br)c1)N/N=C/c1cc([N+](=O)[O-])ccc1O	8	/	/	-1	/	/	6841
CC(=O)Nc1ccc(C(=O)OCC(=O)c2ccc(F)cc2)cc1	12	10	5.5	-28	9	3	2128
COc1ccc(C)cc1S(=O)(=O)N1CCN(C(=O)c2ncoc2-c2ccccc2F)CC1	-16	18	3.0	-16	1	8	3698
COc1ccccc1CNC(=O)COC(=O)CCN=C1NS(=O)(=O)c2ccccc21	9	2	0.9	-7	12	8	5501
Cn1c(=O)c2[nH]c(NN=Cc3ccc(F)cc3)nc2n(C)c1=O	/	-2	0.6	-41	14	6	3300
CC(C)C(=O)NCc1cc(-c2ccc(Cl)cc2)no1	0	9	1.1	-21	12	15	4089
CCOC(=O)c1cnc2ccc(OC)cc2c1NCCc1ccc(OC)c(OC)c1	10	3	6.6	6	-2	3	2257
COC(=O)c1ccc(NC(=O)CSc2nc(=O)cc(N)n2-c2ccccc2)cc1	2	-20	5.1	-5	13	2	2448
COc1cccc(C2=CC(=O)CC(c3ccco3)C2)c1 (configuration not stated)	0	-1	0.9	6	7	11	4175
Cc1c(NC(=O)c2ccc(N(Cc3ccccc3)S(C)(=O)=O)cc2)c(=O)n(-c2ccccc2)n1C	-6	4	0.5	-8	1	0	4128
COc1ccc(CCNCc2csc3nc4ccccc4n23)cc1OC	8	4	3.6	-6	/	/	5747
O=C(NCc1ccc2c(c1)OCO2)c1ccc(C2SCC(=O)N2Cc2ccco2)cc1 (configuration not stated)	-4	-3	-0.3	7	-9	3	5613
OCCNCc1cccc(-c2ccccc2)c1O	/	0	3.9	-11	15	2	3827
CCN(CC(=O)Nc1ccc2c(c1)OCCO2)C(=O)c1cc(S(=O)(=O)N2CCOCC2)ccc1F	/	11	2.7	-25	5	10	4926
O=C1C2CC(O)CN2C(=S)N1Cc1ccccc1 (configuration not stated)	12	3	3.9	/	-7	-3	/
Fc1ccccc1COc1ccc(Br)cc1CNCc1ccncc1	-6	-7	4.8	-9	-3	0	2372
COC(=O)c1ccccc1NC(=O)CSc1nnc(-c2ccncc2)o1	-1	0	4.6	-25	2	7	2788
C=CCOC(=O)C1=C[C@@H](c2cn(C(C)=O)c3ccccc23)C[C@@H](OCCCCO)O1	2	/	/	-11	/	/	3598
N#CCCn1cc(C(N)=O)c(-c2cccs2)n1	-2	3	7.3	-13	-11	4	5658
O=C(c1ccc(NC2=NC3CS(=O)(=O)CC3S2)cc1)N1CCN(c2ccc(F)cc2)CC1 (configuration not stated)	5	5	-10.0	-9	5	4	4804
O=C(CN1C(=O)COc2ccccc21)N1CCc2ccccc21	-7	-2	0.1	12	-5	8	3695
COc1ccc(-c2nn(-c3ccccc3)cc2/C=N/N=C(N)N)cc1OC	0	/	/	-1	/	/	2088
COc1ccc(N(C(=O)c2snc(C(N)=O)c2N)C(C(=O)NCc2ccccc2)c2ccc(O)cc2)cc1OC (configuration not stated)	-9	1	-0.5	-18	-8	3	5692
C/C(=N/Nc1ccccc1[N+](=O)[O-])c1ccc([N+](=O)[O-])cc1	3	/	/	-8	/	/	3744
Cc1ccc(NS(=O)(=O)c2cccc(C(=O)N/N=C/c3ccc4c(c3)OCCO4)c2)c(C)c1	-5	/	/	-9	/	/	2944
C/C(=N\NC(=O)COc1ccc(C)cc1[N+](=O)[O-])c1cccs1	-3	/	/	-43	/	/	2517
CC(C)Oc1ccc(CC2CCC(=O)N(C)C2=O)cc1 (configuration not stated)	-1	2	2.2	-25	10	8	10065
COc1cc2c(c(OC)c1OC)C(=O)C(=Cc1ccccc1)O2	/	-7	10	-13	2	13	3898
NC(=O)c1nsc(C(=O)N(c2cccc(F)c2)C(C(=O)NCC2CCCO2)c2c[nH]c3ccccc23)c1N (configuration not stated)	1	-12	3.0	-27	2	5	3588
COc1cc(/C=C(/C#N)c2ccccc2)ccc1Oc1ccc([N+](=O)[O-])cn1	1	-11	-4.6	4	-5	2	?
CC(=O)Nc1nc(=S)ss1	10	9	5.0	-18	10	8	2985
S=C(NCCc1ccccn1)Nc1ccccc1Cl	-1	6	-0.1	-10	7	5	1988
O=C(COc1ccc(Br)cc1)Nc1ccncc1	1	-2	4.1	-9	2	1	2357
Cc1ccc(C(=O)NCc2ccccn2)c(Cl)c1	-4	-9	0.0	-18	1	-2	3688
CCc1nc2ccccc2c(=O)n1NC(=O)c1c(O)c2ccccc2n(CC)c1=O	2	30	14	3	14	14	4102
C=CCNC(=S)N1CCN(C2CCCCC2)CC1	2	8	2.8	-9	13	-3	4089
CC1CCN(CC(=O)Nc2ccccc2C#N)CC1	-8	5	-3.8	10	/	/	4676
CC(=C/c1ccco1)/C=N/NC(=O)CSc1nnc(SCc2ccc(C)cc2)s1	-14	/	/	-10	/	/	2512
O=C(NCCCO)C12CC3CC(CC(C3)C1)C2	10	8	0.2	-6	5	2	7533
CCCOc1ccc(-c2c(C(=O)N/N=C(\C)c3cccs3)nnn2-c2nonc2N)cc1	0	/	/	-6	/	/	4438
CCNC(=O)COC(=O)CCC(=O)c1cccs1	-5	-1	4.8	-22	6	-1	2545
COC(=O)c1ccc(-c2noc(CN3CCCC(CNC(C)=O)C3)n2)cc1 (configuration not stated)	-1	3	5.1	58*	9	10	4490
CS(=O)(=O)c1nc(S(=O)(=O)c2ccc(Cl)cc2)c(N2CCOCC2)s1	4	-1	0.3	0	3	9	6601
COc1ccc(Br)c(C(=O)NNC(=O)c2ccc(NS(=O)(=O)c3cccs3)cc2)c1	-7	3	2.0	-41	-3	-4	6126
O=C(COC(=O)c1ccc(F)c(S(=O)(=O)N2CCOCC2)c1)c1ccc(Br)cc1	/	-5	5.6	-43	10	0	5536
O=C(Cc1ccc(S(=O)(=O)N2CCOCC2)s1)OCc1ccc(Cl)cc1	/	-11	-3.8	-40	-9	1	5784
CCn1ncc(Br)c1C(=O)Nc1ccccc1C(=O)OC	-3	-3	-0.1	-7	7	9	4361
COc1ccccc1[C@]1(C)ON(c2ccccc2C(F)(F)F)C1=O	/	30	8.8	-9	12	8	3870
Remaining list, next part
SMILES	BJeLR viability	ugtP null kill	RN4220 kill	PrP UTR inh	Mtb hypoxia inh	Mtb hypoxia inh growth	Bead autofluor
Cc1ccnc(NCn2nnc3ccccc32)c1	7	-2	0.0	-3	4	0	6592
O=C(N/N=C/c1ccc([N+](=O)[O-])o1)C(=O)Nc1ccc(C(=O)O)cc1	3	/	/	-1	/	/	3696
CCN1CCN(CC(=O)Nc2ccc(N(C)C)cc2)CC1	-6	7	0.0	-24	6	-13	4149
CCN(CC(=O)N1CCCCCC1)S(=O)(=O)c1ccc(C)cc1	-4	6	2.7	-8	10	6	4056
CCOC(=O)C(=O)Nc1ncc(Cl)s1	6	0	2.4	-7	8	1	4686
CCCCCCCN(C(=O)CCl)c1ccccc1C	-3	31	10	-23	18	20	9251
COC(=O)c1[nH]c2ccccc2c1NS(=O)(=O)c1ccc(OC)cc1OC	5	10	5.2	-20	0	9	20857*
c1ccc(CCN2CCCCC2)nc1	/	3	3.7	7	5	4	4157
COc1ccccc1NC(=O)c1ccc(CSc2ccccc2)o1	-4	-1	-0.8	-5	-2	0	?
O=C(O)c1ccc(-n2c(/C=C/c3ccccc3)nc3ccccc3c2=O)cc1	-2	10	3.7	-4	2	-4	3637
COc1ccc(C(=O)N/C(=C\c2ccccc2)C(=O)NCc2cccnc2)cc1	2	5	5.9	6	6	1	2871
Cc1cc(NCc2ccco2)nc2cc(O)ccc12	-4	8	0.3	2	-10	0	5724
Cc1ccc(N(C(=O)c2csnn2)C(C(=O)NC2CCCCC2)c2ccccn2)cc1 (configuration not stated)	0	6	3.0	-11	-4	1	5133
CCN(CC)C(=O)c1ccc(/C=C/c2c[nH]c3ccccc23)[n+](C)c1	-12	2	4.9	-19	21	8	3846
CC(C(=O)Nc1ccccc1C(F)(F)F)N1CCN(C)CC1 (configuration not stated)	-4	6	4.3	-12	11	4	3477
CON=CC(C#N)c1ncc(C(F)(F)F)cc1Cl (configuration not stated)	/	25	31	/	7	4	/
NC(=O)C1CCN(c2ccc([N+](=O)[O-])cc2Cl)CC1	2	4	8.7	-12	1	0	3453
CN(C)CCCN(Cc1cc2cc3c(cc2[nH]c1=O)OCCO3)C(=O)NC1CCCCC1	0	-3	0.8	/	1	1	4562
COc1ccc(CC(=O)N/N=C/c2cccn2-c2ccc([N+](=O)[O-])cc2)cc1OC	-4	/	/	-33	/	/	2533
CCOC(=O)N1CCC(N2Cc3cccc(C(=O)Nc4cccc(F)c4)c3C2=O)CC1	2	-1	3.3	-24	3	6	2977
NC(=O)NC(=O)COC(=O)CCSc1ccccc1	1	-9	-2.2	-37	-10	9	4229
CCN1CCN(C(=O)/C=C/c2ccc(F)cc2)CC1	1	0	6.3	/	8	3	/
COc1ccccc1C=NNC(=O)C(=O)Nc1ccccc1OC(F)(F)C(F)F	/	1	5.9	/	9	7	/
O=C(NC1CCCCCCC1)c1ccccc1-c1ccccc1	12	-3	21	-15	1	8	1976
CC(NS(=O)(=O)c1ccc(OCC(=O)N2CCOCC2)c(Cl)c1)c1ccccc1 (configuration not stated)	-2	-7	-0.1	-20	/	/	4909
Cc1cc(C)n(-c2nc(NCC3CCCO3)c3c4c(sc3n2)COC(C)(C)C4)n1 (configuration not stated)	-3	5	-2.9	/	/	/	/
COC(=O)CCC(=O)Nc1cc(S(=O)(=O)Nc2ccc(Cl)cc2)ccc1N1CCOCC1	2	-2	12	-20	12	8	2052
CC(=O)OC[C@H]1O[C@@H](n2ncc(=O)[nH]c2=O)[C@H](OC(C)=O)[C@@H]1OC(C)=O	10	/	/	-23	/	/	5287
O=C(NC1CCCCC1)C1CCCN1C(=O)NCc1ccccc1 (configuration not stated)	-5	0	-0.8	-13	-5	-9	3959
O=C1c2ccccc2C(O)N1c1ccccc1 (configuration not stated)	8	10	4.1	-21	6	-5	3152
COc1ccc(N2CCN(C(=O)CCNC(=O)c3ccccc3)CC2)cc1	6	0	5.0	-13	6	6	3304
CCc1ccc(-n2cccc2/C=C2/C(=N)N3C(=NC2=O)SN=C3S(C)(=O)=O)cc1	-1	15	32	-26	-13	-4	2960
C[C@H](CO)N1C[C@H](C)[C@@H](CN(C)S(=O)(=O)c2ccccc2)Oc2ccc(NC(=O)Nc3ccc4c(c3)OCO4)cc2C1=O	/	-10	-12	-6	0	10	3641
O=C(/C=C/Nc1ccc(F)c(F)c1)c1ccc(Br)cc1	5	-1	5.2	-96	11	10	4853
C/C(=N\NC(=O)c1ccc(NS(=O)(=O)c2cccs2)cc1)c1ccc(C(C)(C)C)cc1	7	/	/	-6	/	/	1994
COCc1cc(=O)[nH]c(Cc2c(Cl)cccc2Cl)n1	0	12	2.3	-16	1	10	3857
COc1ccc(-c2ccc(-c3noc(-c4ccccc4)n3)c(OC)n2)cc1	-6	-18	11	-18	2	11	10942
